# Source: PubChem BioAssay
# MT1-MMP act inh: MT1-MMP (human) activation inhibition | P50281 | GFP/RFP ratio change, % at 20 µM | HT1080 RFP-PRO-GFP cells, GFP/RFP ratio fluorescence, overnight; percent of plate control window, DMSO zero | actives 0.061% (n = 360,000);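 active = GFP/RFP ratio change of at least 30% with cell ATP level not reduced by more than half and red fluorescence within 50% of control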; note: strong numbers were not always called active
#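 Assay system: RFP-PRO-GFP reporter HT1080 cells; read-out basis: GFP/RFP fluorescence ratio; benchmarks: DMSO wells and RFP-L50D-GFP cells; doses: 20 µM single dose, 1% DMSO; schedule: overnight cell settling, then overnight compound exposure, 37 °C, 5% CO2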
# HIV Env fusion: blocks HIV Env-driven cell-cell fusion; HeLa-JRFL Env/CEM21 cell fusion, luciferase; inhibition, % at 12.3 µM; actives 1.1% (n = 360,000);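 active = mean replicate inhibition score of at least 50 and every replicate individually at or above 50; inconclusive = only one of the two criteria met; inactive = mean below 50 and not all replicates reaching 50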;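 note: 0% = plate neutral controls and 100% = maraviroc near 300 nM; one replicate is shown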
# PABP FP inh: blocks human PABP binding to poly(A) RNA. P11940. fluorescence polarization. inhibition, % at 35 µM. actives 1% (n = 290,000). AID 2014;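 active = 50% or more with normal probe brightness, or confirmed in later tests; inconclusive = above 50% with abnormal brightness, or retests that disagree; inactive = below 50% or failed in later tests; about a fifth of its hits are not listed in these tables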;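 note: calls also rest on retests at 20 µM and on dose response follow-up; controls were probe without protein and protein plus probe with vehicle; some compounds called inactive have numbers as strong as hits; many hits fall short of the cut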
# Target sequence (P11940 whole entry, looked up): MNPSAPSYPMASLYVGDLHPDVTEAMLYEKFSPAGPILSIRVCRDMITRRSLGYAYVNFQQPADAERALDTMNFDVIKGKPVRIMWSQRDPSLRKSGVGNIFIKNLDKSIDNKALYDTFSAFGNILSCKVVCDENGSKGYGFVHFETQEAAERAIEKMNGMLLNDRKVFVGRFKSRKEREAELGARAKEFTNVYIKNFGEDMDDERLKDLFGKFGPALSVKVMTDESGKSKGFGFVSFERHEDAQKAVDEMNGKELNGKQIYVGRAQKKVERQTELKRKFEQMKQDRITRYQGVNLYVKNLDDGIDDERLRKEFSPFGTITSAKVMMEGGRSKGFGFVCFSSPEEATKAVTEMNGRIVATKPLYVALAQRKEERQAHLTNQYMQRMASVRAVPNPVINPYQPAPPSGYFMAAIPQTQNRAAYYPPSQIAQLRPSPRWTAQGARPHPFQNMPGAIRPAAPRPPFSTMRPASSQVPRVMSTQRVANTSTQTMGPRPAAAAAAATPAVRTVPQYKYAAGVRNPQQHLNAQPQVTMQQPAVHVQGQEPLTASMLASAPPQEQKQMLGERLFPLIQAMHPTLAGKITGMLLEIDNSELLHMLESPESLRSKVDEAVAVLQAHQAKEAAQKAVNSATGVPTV
# Rce1 inhib: blocks yeast Ras-converting enzyme. actives 0.27% (n = 290,000). yeast membranes, quenched prenylated peptide cleavage fluorescence. Q03530. calls only;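 active = fall in fluorescence gain of 50% or more versus controls, with final raw signal at or below 3038400; inconclusive = same 50% fall but final raw signal above 3038400; inactive = fall in fluorescence gain under 50%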;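 note: plate controls were neutral control wells for no effect and wells lacking membranes for full effect; tested at 10 µM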
# Yeast UUG start: modulators of start codon recognition fidelity in yeast | actives 0.13% (n = 350,000) | S. cerevisiae UUG-firefly luciferase reporter, luminescence/redox ratio | activity score, % at 18.7 µM;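 active = replicate mean at a twofold rise or more, about +100% in these data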;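 note: firefly luciferase made from a UUG start codon reports start codon fidelity; reporter light over untreated wells divided by growth signal over untreated wells; some hits fall short of that in this replicate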
# CSC inhib: blocks cancer stem cells; cancer stem cell-like cells viability, luminescence; inhibition, % at 7.5 µM; actives 1.1% (n = 300,000); AID 2717;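 active = mean at 75% or more and at least half the replicates too; inconclusive = mean and replicates disagree; tested in HMLE shEcad cells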;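 note: 0% = median of negative and 100% = median of positive control wells; the first replicate is given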
# eIF4H FP inh: inhibitors of RNA binding by human eIF4H. Q15056. eIF4H fluorescence polarization binding assay. inhibition, % at 35 µM. actives 0.94% (n = 290,000);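 active = 50% or more with normal probe brightness, or confirmed in later tests; inconclusive = above 50% with abnormal brightness, or retests that disagree; inactive = below 50% or failed in later tests; about a fifth of its hits are not listed in these tables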;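 note: calls also rest on retests at 20 µM and on dose response follow-up; 0% = protein and probe with vehicle and 100% = probe without protein; strong numbers were not always called active; many hits fall short of the cut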
# MT1-MMP act inh RFP: recorded beside MT1-MMP act inh, whose call it bears; RFP signal change, %; measured here: RFP expression control read;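 0 = vehicle wells; hits needed this value within 50% of zero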
# Active calls of the source: *; i = inactive; ? = inconclusive; . = no result given; + = active, no number.
no.	compound	eIF4H FP inh	HIV Env fusion	MT1-MMP act inh	CSC inhib	Yeast UUG start	MT1-MMP act inh RFP	PABP FP inh	Rce1 inhib
1	Cc1cccc(NC(=O)CCCN2C(=O)c3cccc4cccc(c34)C2=O)c1	13	-8	2	13	-15	-2	-2	i
2	CN(C(=O)c1cccc(C#CC(C)(C)O)c1)C1CCCN(Cc2ccccc2F)C1 (stereo not given)	-15	11	6	-6	-20	-1	5	i
3	CCOc1ccc(NS(=O)(=O)c2ccc(NC(=O)C3CC3)cc2)cc1	4	7	5	9	-15	-7	-4	i
4	CCN1CCN(C(=O)CCNC(=O)Cn2ccc3ccccc3c2=O)CC1	7	-11	0	-8	-14	2	9	i
5	CSc1nc(N)nc(SCC(=O)OC(C)C)c1C#N	-4	-27	4	2	-3	8	6	i
6	C=CCNC(=S)N/N=C1\CCS(=O)(=O)c2ccccc21	-5	-12	2	-16	-2	4	4	i
7	Cc1cc(C)c(S(=O)(=O)c2cccc(Cl)c2)c(Cl)n1	2	2	0	-14	.	2	8	i
8	O=C(c1ccc(S(=O)(=O)NCc2ccco2)cc1)N1CCN(Cc2ccccc2F)CC1	.	0	0	.	-20	-2	.	.
9	CCOc1ccc(/C=N/Nc2ccc(C(F)(F)F)cc2[N+](=O)[O-])cc1O	-9	2	11	.	.	-4	6	i
10	O=C(Cn1cc(C(F)(F)F)ccc1=O)OCC(=O)c1ccc[nH]1	.	-18	-4	-25	-31	2	.	.
11	COc1cc(NS(=O)(=O)c2ccc(NC(=O)c3cccnc3)cc2)ncn1	3	-29	-4	-4	-2	1	-4	i
12	Cc1ccc(NC(=O)CSc2n[nH]c(-c3ccncc3)n2)c(C)c1	41	2	2	16	-14	4	27	i
13	c1ccc(Nc2nc(-c3cccnc3)cs2)nc1	-2	-232	-5	1	-22	-11	9	.
14	Cn1c(=O)c2cc(NC(=O)NCc3ccc(F)cc3)ccc2n1Cc1cccc(C(F)(F)F)c1	.	-28	3	.	-18	-16	.	.
15	O=C1NCCN(Cc2ccc(Cl)c(F)c2)C1CC(=O)N1CCCCO1 (stereo not given)	8	-21	-2	8	2	1	8	i
16	O=C(CN1C(=O)CCC1=O)Nc1cccc2c1C(=O)NC2=O	-3	-12	1	-13	.	10	1	i
17	Cn1ncc([N+](=O)[O-])c1C(=O)N1CCCCCC1	4	4	1	.	-14	7	-5	i
18	COc1cccc(CNC(=O)Cn2ccc([N+](=O)[O-])n2)c1	5	-6	-1	-3	-24	-2	4	.
19	Cc1cccc(-n2c(O)c(C=Nc3ccccc3O)c3ccccc3c2=O)n1	-1	-20	-10	6	-3	-3	0	i
20	Cc1ccc2sc(NC(=O)C3CC3)nc2c1C	-1	-21	2	-18	-3	-3	2	i
21	N#C/C(=C\c1cc2c(cc1Br)OCO2)c1ccc(C(=O)O)cc1	-8	-10	-2	4	-9	2	3	i
22	COCc1nnc(NC(=O)CCS(=O)(=O)c2ccccc2)s1	11	7	1	-4	-16	-3	6	.
23	Cc1cc(=O)oc2cc(OC(=O)c3cncc(Br)c3)ccc12	0	28	-3	-11	.	3	12	i
24	CCCCn1nc2cc(C(=O)NC[C@@H]3CCCO3)ccc2c1OCC	3	-24	0	-12	-11	3	-5	i
25	O=c1cc(C(F)(F)F)[nH]c(=S)n1-c1ccccc1	-6	-3	0	-3	-10	4	-10	i
26	Cc1cccc(OCCCC(=O)Nc2ccc(S(=O)(=O)Nc3onc(C)c3C)cc2)c1C	-13	.	13	1	1	1	11	i
27	CC1SC(c2ccccc2)N(CC(O)c2ccc([N+](=O)[O-])cc2)C1=O (stereo not given)	6	10	4	-16	-8	4	5	i
28	COc1ccccc1N1CCN(C2CCN(S(=O)(=O)c3ccc(NC(C)=O)cc3)CC2)CC1	0	9	-4	6	8	-6	-3	.
29	CN(C)/C=C(\C#N)C(=O)Nc1ccc(O)cc1F	-1	-4	-3	1	.	0	4	i
30	COC(=O)c1ccc(Cl)c(NC(=O)CSc2nnc(-c3ccncc3)o2)c1	1	-2	-3	-5	-23	-4	-2	i
31	CCc1ccc(N2CC(C(=O)N3CCN(S(=O)(=O)c4cccc(F)c4)CC3)CC2=O)cc1 (stereo not given)	.	16	-1	.	-2	-1	.	.
32	COc1ccc(-c2noc(CCC(=O)NCCCN3CCN(c4ccc(F)cc4)CC3)n2)cc1	-13	24	-4	-5	-8	-9	-10	i
33	CCNC(=S)NNC(=O)c1cc(-c2cc(C)ccc2C)nc2ccccc12	25	.	8	.	-34	-6	9	i
34	CCOC(=O)C[C@H]1c2ccc(C(F)(F)F)cc2S(=O)(=O)N1C(C)(C)C	.	6	3	-8	-15	-4	.	i
35	COc1ccc(CC(=O)NCc2ccc3c(c2)OCO3)cc1	-8	.	1	8	.	1	7	i
36	O=C1Nc2ccc(S(=O)(=O)N3CCOCC3)c3cccc1c23	-2	-49	3	-10	-15	3	-9	i
37	COc1ccc(/C=C/C(=O)OC(C)C(=O)c2ccccc2)cc1OC (stereo not given)	.	-6	-5	-9	6	-3	.	i
38	COc1ccc(C2c3ccc4ccccc4c3Oc3ncn(CCCN(C)C)c(=N)c32)cc1 (stereo not given)	-3	-23	-7	105*	-11	-9	33	i
39	Cc1nnc(SCC(=O)NC(C)(C)C)n1NCc1c(F)cccc1Cl	10	1	1	9	-16	2	-6	i
40	COc1cc(/C=C/c2c([N+](=O)[O-])c(=O)n(C)c(=O)n2C)cc(OC)c1OC	-6	.	-11	9	-6	-11	1	i
41	CCC(C)(C)NC(=O)CN(C(=O)CNS(=O)(=O)c1ccc(F)cc1)c1ccc2c(c1)OCCO2	-14	11	1	-8	-10	1	1	i
42	Cc1cccc(S(=O)(=O)Nc2ccc(S(=O)(=O)Nc3nccs3)cc2)c1	.	.	-2	-3	-11	6	.	.
43	Cc1c(C)c2c(OCC(=O)NCc3ccncc3)cc3c(c2oc1=O)CCC(C)(C)O3	0	.	12	-14	-23	5	8	+
44	Cc1cccc(N(C(=O)c2ccco2)C(C(=O)NC2CCCC2)c2cccnc2)c1C (stereo not given)	1	0	0	.	-5	2	5	i
45	Cc1csc(NC(=O)c2cc3c(s2)CCCCC3)n1	2	.	-37	46	.	-34	3	i
46	O=C(CCC(=O)c1ccc(F)cc1)NN1C(=O)NC2(CCCCC2)C1=O	.	2	-3	-4	-1	1	.	i
47	CCC1CCCCN1C(=O)CSc1nc(C)cc(C)n1 (stereo not given)	-12	7	-1	4	.	0	?	.
48	COc1ccc(OC)c(/C=N/NC(=O)c2ccc(Cn3cc([N+](=O)[O-])cn3)o2)c1	-7	-13	0	4	-14	0	4	i

# 4 compounds drawn at random from those above:
no.	compound	eIF4H FP inh	HIV Env fusion	MT1-MMP act inh	CSC inhib	Yeast UUG start	MT1-MMP act inh RFP	PABP FP inh	Rce1 inhib
48	COc1ccc(OC)c(/C=N/NC(=O)c2ccc(Cn3cc([N+](=O)[O-])cn3)o2)c1	-7	-13	0	4	-14	0	4	i
45	Cc1csc(NC(=O)c2cc3c(s2)CCCCC3)n1	2	.	-37	46	.	-34	3	i
47	CCC1CCCCN1C(=O)CSc1nc(C)cc(C)n1 (stereo not given)	-12	7	-1	4	.	0	?	.
44	Cc1cccc(N(C(=O)c2ccco2)C(C(=O)NC2CCCC2)c2cccnc2)c1C (stereo not given)	1	0	0	.	-5	2	5	i

# Remaining list, next part
no.	compound	eIF4H FP inh	HIV Env fusion	MT1-MMP act inh	CSC inhib	Yeast UUG start	MT1-MMP act inh RFP	PABP FP inh	Rce1 inhib
49	CCC(C)c1ccc(S(=O)(=O)N2CCN(C(=O)c3ccc(Cl)c(S(=O)(=O)N4CCOCC4)c3)CC2)cc1 (stereo not given)	.	11	-11	.	-12	-28	.	.
50	CCOc1ccccc1NC(=O)C(OC(=O)c1ccccc1O)c1ccccc1 (stereo not given)	-10	.	-8	5	.	-5	-5	i
51	O=C(NCC(c1ccco1)N1CCOCC1)c1ccc(Cl)cc1 (stereo not given)	.	4	2	-4	-1	6	.	i
52	CCOP(=O)(NC12CC3CC(CC(C3)C1)C2)NC12CC3CC(CC(C3)C1)C2	-2	24	-4	.	.	-4	8	i
53	O=C(CCN1CCCCCC1)c1ccccc1	5	-2	7	-3	-20	7	-18	.
54	CC(C)[C@@H]1CC[C@@H](C)c2c(-c3ccccc3)n[nH]c21	-2	.	-1	101*	-12	-4	-7	i
55	CCOC(=O)N1CCN(S(=O)(=O)N2CCCC(C(=O)NCc3ccccc3OCC)C2)CC1 (stereo not given)	.	-88	-2	.	5	-5	.	.
56	O=C(O)CSc1cc(C(=O)c2ccccc2O)cn2c(=O)c3c4c(sc3nc12)CCCC4	40	5	-5	.	-14	2	47	i
57	O=C1CC(/C=C/c2ccccn2)=Nc2ccccc2N1	46	4	-13	5	.	-12	1	i
58	CCCOC(=O)c1ccc(NC(=O)CCOc2ccccc2)cc1	-11	24	-11	-16	-7	2	-8	i
59	CCc1ccc(NC(=S)N(Cc2cccc(Br)c2)CC2CCC(C(=O)O)CC2)cc1 (stereo not given)	4	-4	-7	7	.	3	-4	i
60	Cc1cc(C)n(CC(=O)N2CCc3ccccc32)c(=O)c1C#N	0	-19	-1	-5	-2	1	-8	i
61	CC(C)Cc1nnc(NC(=O)C2CCCN(C(=O)c3ccc(Cl)cc3)C2)s1 (stereo not given)	.	51	2	.	-9	-3	.	.
62	CCN(Cc1ccncc1)C(=O)c1ccccc1NS(=O)(=O)c1ccc(F)cc1	-1	11	-1	0	.	0	-6	i
63	Cc1ccc(/C=C2\NC(=S)NC2=O)cc1[N+](=O)[O-]	-9	-7	-6	-10	.	1	0	i
64	Cc1cccc(NC(=O)/C(=C\c2ccc([N+](=O)[O-])o2)NC(=O)c2ccc(Cl)cc2)c1	21	.	2	4	-5	1	-3	.
65	C[C@H]1[C@@H](c2ccccc2)Oc2ccc(Cl)cc2S(=O)(=O)N1Cc1ccc(F)cc1F	.	13	-3	.	-5	-9	.	.
66	C=CCNC(=S)N1CCC(C(=O)c2ccc(Cl)cc2)CC1	0	-5	1	-15	-37	-10	-22	i
67	Cc1ccc(/C=N/NC(=O)c2cc3c(ccc4ccccc43)o2)o1	-6	-23	-3	.	-21	-5	6	i
68	Cc1cc(C)n2nc(CC(=O)NC3CCCCCC3)nc2n1	3	-74	7	-6	-8	7	-1	i
69	Cc1ccc(NC(=O)CCCC(=O)O)c(Br)c1	-10	.	4	-1	-12	6	-7	.
70	CN1CCN(CCCNC(=O)c2ccc(NC(=O)C3=CSCCO3)cc2)CC1	-7	5	0	-26	-5	1	-10	i
71	O=C(CN1CCN(C(=O)c2ccco2)CC1)Nc1ccc(F)cc1F	0	-10	2	-11	-8	2	0	i
72	COc1cccc(CNC(=O)c2ccccc2N)c1	11	.	2	1	-22	1	10	i
73	C/C(=N/NC(=O)CC(=O)N/N=C(\C)c1ccc([N+](=O)[O-])cc1)c1ccc([N+](=O)[O-])cc1	-7	-2	3	5	-13	-1	2	i
74	Cc1ccccc1CN1CCc2c(OCC(=O)N3CCCc4ccccc43)cccc2C1=O	-4	28	-10	44	.	-18	-2	i
75	Cc1cc(C)n2ncc(S(=O)(=O)c3ccccc3)c2n1	-7	18	0	.	.	5	8	i
76	CCOc1ncccc1C(=O)OC(C)C(=O)NC(=O)NC1CCCCC1 (stereo not given)	4	12	-3	-2	.	-2	-3	i
77	COc1ccc(-n2c(N)c(C(=O)Nc3c(C)n(C)n(-c4ccccc4)c3=O)c3nc4ccccc4nc32)cc1	40	-3	-1	8	-1	-4	10	i
78	O=C(Nc1ccccc1C(F)(F)F)N1CCC(n2c(=O)[nH]c3ccccc32)CC1	0	.	-4	-4	.	0	0	i
